Anthrax LT inh: qHTS Assay for Anthrax Lethal Toxin Internalization | 70,000 compounds, 0.67% hits | Potency, µM (highest dose often 40 µM), without a hit: top-dose activity change, negative = inhibition, actives largely listed as inhibitors | Cells, anthrax lethal toxin internalization, FRET ratio (460/530); active = well fitted falling ratio curve with the 530 nm signal flat; inconclusive = other ratio curves, or a change in one channel alone; inactive = flat curves in the ratio and both channels; the % refers to the ratio; also: % is scaled to controls: 0 for no effect and ±100 for the full control effect; nearly all actives have a fitted effect of over 50% in size; tested in ME-180 cells; beta-lactamase reporter
SmPrx2 inh: Schistosoma Mansoni Peroxiredoxins (Prx2) | Schistosoma mansoni peroxiredoxin 2 (Prx2) | S. mansoni Prx2 activity coupled to TGR/GSH (TGR is thioredoxin glutathione reductase), NADPH fluorescence loss, qHTS; some inactives read as strong as hits | Potency, µM | 65,000 compounds, 0.07% hits; active means full or partial inhibition curve with a strong effect at the top dose; inconclusive means weaker partial or single-point curve; inactive means no accepted curve; also: series up to 57 µM; many of its hits are not listed in these tables
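Purified S. mansoni TGR and Prx2 in pH 7.4 phosphate buffer with EDTA and Tween-20 were preincubated with compounds for 15 min. Further NADPH/GSH was added, then a 2.5 mM H2O2 aliquot initiated turnover, followed kinetically by NADPH fluorescence.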
Starred values were filed as active, the others as inactive; ? = inconclusive; . = no result given; & = joins results of further samples; [ ] = another dose, or the depositor's remark. Potency is read from the fitted curve at half-maximal effect. Only part of the results is shown; rates above refer to the full screens.

Order of results – Anthrax LT inh	SmPrx2 inh
CC1(C)CC(CCC(=O)Nc2ccc(S(N)(=O)=O)cc2)C(=O)O1 (stereo not given)
    11.1%	>57
COc1cc(CO)cc(Br)c1OCC(=O)N1CCCCC1
    2.0%	>57
O=C(CCc1ccccc1)Nc1nc2n(n1)C(c1ccccc1)CC(=O)N2 (stereo not given)
    1.4%	>57
COC(=O)c1cc(=O)nc2sc(-c3ccccc3)nn12
    .	>57
COc1ccc(C/C(N)=N/n2cnnc2)cc1Cl
    -5.8%	.
O=C(O)Cc1ccc(NC(=O)C2CCCCC2C(=O)O)cc1 (stereo not given)
    -0.4%	>57
CCCOc1ccc(C(=O)C(c2ccccc2)N2CCOCC2)cc1 (stereo not given)
    -8.2%	>57
Cn1c(=O)c(CCc2ccccc2)nc2cnc(OCc3ccccc3)nc21
    ?	>57
COc1cccc(NC(=O)c2nc3ncccn3n2)c1
    -13.8%	>57
COC(=O)c1cccc(C(=O)Nc2ccc(C)cc2)n1
    5.01µM*	>57
CCC(c1nnnn1C(C)(C)C)N(CCOC)Cc1cc2cccc(C)c2n2nnnc12 (stereo not given)
    11.0%	>57
CCC(=O)Nc1cc2c(cc1C(=O)c1ccccc1)OCCO2
    4.5%	>57
Cc1ccccc1NC(=O)N1CCCC(c2nc(-c3ccc(F)cc3)no2)C1 (stereo not given)
    -12.2%	.
O=C(O)c1ccc(S(=O)(=O)N2CCC(c3nc(-c4ccccc4Cl)no3)CC2)cc1
    -0.4%	>57
O=c1ccc2cc(S(=O)(=O)N3CCOCC3)ccc2o1
    -8.0%	>57
CCOC(=O)c1ccc(S(=O)(=O)N2CCN(CC(=O)NC(=O)NC3CCCCC3)CC2)cc1
    -4.1%	>57
CCCn1c2c(c(O)c(C(=O)NC)c1=O)CCCC2
    -0.2%	>57
O=C(NCc1ccco1)c1ccc2snnc2c1
    -6.3%	.
COc1ccc(-n2c(COc3ccc(C)cc3)nnc2SCC(N)=O)cc1
    -6.1%	>57
CCn1cc(C(=O)NCc2ccc(OC)cc2OC)c(=O)c2ccc(C)nc21
    -20.3%	>57
CCN1CCN(C(=O)C2CCN(Cc3nc(-c4ccc(Cl)cc4)oc3C)CC2)CC1
    ?	>57
Cc1ccc(-c2nc3ccccc3c(=O)n2-n2cccc2)cc1
    0.5%	>57
CC(=O)OC[C@@H]1O[C@H](C/C=N\OC[C@@H](C)[C@H](OCc2ccccc2)C(C)C)C=C[C@@H]1OC(C)=O
    0.3%[8 µM]	.
O=C(NCCO)c1ccc2[nH]c3c(c2c1)CCCC3
    -13.2%	.
COc1cccc(C2CC(c3ccccc3Cl)Nc3ncnn32)c1 (stereo not given)
    4.5%	>57
O=C(CSCc1ccccc1)NC1CCSC1=O (stereo not given)
    0.0%	>57
CCOCCn1c(N(C)Cc2ccccc2)nc2c1c(=O)[nH]c(=O)n2C
    -6.1%	>57
O=c1c(-c2ccc(F)cc2)nc2cnc(N3CCNCC3)nc2n1C1CC1
    ?	>57
CCOC(=O)C1=C(C)Nc2nc(C)nn2C1c1ccc(OC)c(OC)c1 (stereo not given)
    ?	>57
Cc1ccc(-c2cc(C(F)F)n3ncc(C(=O)N4CCN5CCCC5C4)c3n2)cc1 (stereo not given)
    ?	>57
O=C(Cn1cnc2ccccc2c1=O)NCCC(=O)Nc1ccc2c(c1)OCCO2
    11.2%	>57
CCOc1ccccc1NC(=O)Cn1c(C)cc(COC)c(C#N)c1=O
    17.3%	>57
Cc1ccc(NC(=O)c2noc3c2CCCCC3)cc1C
    3.2%	>57
O=C(O)COc1ccc(-c2nnn(CC(=O)O)n2)cc1
    -10.0%	>57
Cc1c(NC(=O)C2CC(c3c(F)cccc3Cl)=NO2)c(=O)n(-c2ccccc2)n1C (stereo not given)
    12.0%	>57
CCN(CC)CCNC(=O)Cc1c(C(=O)O)n(C)c2ccccc12
    -1.4%	>57
Nc1cccc(C(=O)Nc2ccccc2Cl)c1
    -1.4%	>57
O=C(COc1ccc(F)cc1)Nc1ccc(-n2cnnn2)cc1
    2.5%	>57
CSc1ccc(C2C(C#N)=C(N)Oc3c2ccc(=O)c2c(C)oc(C)c32)cc1 (stereo not given)
    -28.6%	>57
O=C(CCCSc1nc2ccccc2[nH]1)NCc1ccco1
    2.2%	>57
Cc1cc(C)cc(NC(=O)C2CCCC2)c1
    ?	>57
COC(=O)c1cn(NC(=O)C2CCCO2)c(=O)c2ccccc12 (stereo not given)
    14.7%	>57
CN(C)C(=O)Nc1ccc(Cl)cc1
    ?	.
Cc1ccc(-c2noc(CSc3nnnn3C3CCCCC3)n2)cc1
    ?	>57
CCOC(=O)c1ccc(N=Cc2nc3ccccc3n2C)cc1
    0.4%	.
Cc1ccc2c(c1)N(CC(=O)NCc1cccs1)C(=O)CO2
    -9.4%	>57
O=C(NCCCN1CCCC1=O)C1CCN(S(=O)(=O)N2CCOCC2)CC1
    -5.7%	>57
Cc1noc(C)c1CN1C(=O)NC2(CCCCCCC2)C1=O
    6.4%	>57
COc1ccc(C2c3c(oc4ccc(Cl)cc4c3=O)C(=O)N2Cc2ccco2)cc1OC (stereo not given)
    -2.7%	>57
O=C(Cn1cc(C(=O)c2cccs2)c2ccccc21)NCC1CCCO1 (stereo not given)
    0.0%	>57
Cc1cc(OCC(=O)O)c(Cl)cc1Cl
    5.2%[8 µM]	>57
CCOC(=O)C1CCN(C(=O)Cn2cc(C(=O)C3CC3)c3ccccc32)CC1
    0.0%	>57
C=CCn1c(NCc2ccccc2)nc2ccccc21
    -5.6%	>57
Cc1cc2ccccc2n2c(SCC(=O)N3CCN(C(=O)c4ccco4)CC3)nnc12
    -0.6%	>57
COc1cc(NC(=O)CC(C)C)ccc1NC(=O)c1ccco1
    6.9%	.
Cc1noc(C)c1COc1cccc(C(=O)N2CCN(C/C=C/c3ccccc3)CC2)c1
    -1.5%	>57
CCOC(=O)c1ccc(NS(=O)(=O)c2ccc3c(c2)oc(=O)n3C)cc1
    -6.8%	>57
Cc1c(NC(=O)C23CC4CC(CC(C)(C4)C2)C3)c(=O)n(-c2ccccc2)n1C
    11.7%	>57
COc1ccccc1Oc1coc2c(CN3CCN(C)CC3)c(O)ccc2c1=O
    -15.1%	.
N#Cc1c2n(c3c(-c4ccccc4)ncnc13)CCC2
    -5.5%	>57

Later entries
Order of results – Anthrax LT inh	SmPrx2 inh
CSc1nnc(-c2ccc(NC(=O)CCc3ccccc3)cc2)n1C
    .	>57
O=C(CSc1ccccc1)NCc1cccnc1
    -4.8%	.
COc1ccc(C2C(C(=O)N3CCN(c4ccccc4)CC3)c3ccccc3C(=O)N2C)cc1 (stereo not given)
    ?	>57
CCOc1ccc(C(=O)Nc2cccc(-c3nc4cccnc4o3)c2)cc1Cl
    ?	>57
O=C(O)CCCNS(=O)(=O)c1ccc(F)cc1
    -5.7%	.
OC(C#CCN1CCOCC1)(c1ccccc1)C1CC1 (stereo not given)
    9.5%	>57
[N-]=[N+]=[N-]
    0.0%	.
CC(CN1CCOCC1)(NS(=O)(=O)c1ccccc1)c1ccccc1 (stereo not given)
    ?	>57
Cc1ccccc1CS(=O)(=O)Cc1ccc(C(=O)NCc2ccco2)o1
    -8.6%	>57
O=c1c2ccccc2nnn1CSc1nc2ccccc2c(=O)n1Cc1ccco1
    0.3%	>57
Cc1[nH]nc2c1C(c1ccc(-c3ccccc3C#N)o1)C(C#N)=C(N)O2 (stereo not given)
    17.6%	>57
CC1CC(c2ccccc2)n2nc(N3C(=O)c4ccccc4C3=O)nc2N1 (stereo not given)
    1.8%	>57
COc1ccc(NC(=O)N2CCC3(CC2)CCN(C(=O)c2cccn2C)CC3)cc1
    9.9%	>57
O=C(CN1CCN(c2nc(-c3ccc(F)cc3)cs2)CC1)NCc1ccc2c(c1)OCO2
    -17.5%	>57
COC(=O)C(C)Sc1nc2c(c(=O)n(C)c(=O)n2C)n1Cc1cccc(C)c1 (stereo not given)
    ?	>57

Whole records, quoted from the list.
`CC(CN1CCOCC1)(NS(=O)(=O)c1ccccc1)c1ccccc1` (stereo not given) is listed with Anthrax LT inh: ?; SmPrx2 inh: >57
`OC(C#CCN1CCOCC1)(c1ccccc1)C1CC1` (stereo not given) is listed with Anthrax LT inh: 9.5%; SmPrx2 inh: >57

(cont.)
Order of results – Anthrax LT inh	SmPrx2 inh
O=C(CSc1nc2ccccc2o1)N1CCCC1
    2.8%	>57
COC(=O)C1=C(C)N(Cc2ccccc2)C2=C(C(C)=O)C[C@@](O)(C(=O)OC)C(=O)N2C1c1ccccc1 (stereo not given in full)
    -2.4%&-14.4%[8 µM]	.
CCCC/C=C/C(NC(=O)OCc1ccccc1Cl)c1ccccc1 (stereo not given)
    -22.3%	>57
O=C1CCc2cc(S(=O)(=O)N3CCN(c4cccc(C(F)(F)F)c4)CC3)ccc2N1
    5.4%	>57
CN(c1cccc(NC(=O)CCSc2ccccc2)c1)S(C)(=O)=O
    -10.8%	>57
CCOC(=O)N1CCC(NC(=O)C2CCN(S(=O)(=O)c3cccs3)CC2)CC1
    -3.7%	>57
COc1ccc(-c2cc3ccc(OCc4nn[nH]n4)cc3oc2=O)cc1OC
    -1.2%	>57
Clc1cc(Cl)c(Cl)c(Cl)c1
    14.5%	.
Cc1ccc(N(CC(=O)NCc2ccco2)C(=O)CCC(=O)Nc2ccccn2)cc1C
    14.6%	>57
Cn1c(=O)c2cc(S(=O)(=O)NC(C(=O)Nc3cccnc3)c3ccccc3)ccc2n(C)c1=O (stereo not given)
    -8.2%	>57
CC(=O)N(C)c1ccc(OCC(O)COc2ccc(N(C)C(C)=O)cc2)cc1
    5.8%	>57
O=P1(NCc2ccco2)COc2ccccc2OC1
    3.0%	>57
COc1ccccc1OCC(=O)Sc1ccc(C)cc1
    -8.8%	>57
CCOc1ccccc1OCC(=O)Nc1nnc(C)s1
    13.3%	>57
CCC/C=C(\CCC)C(NC(=O)c1ccc(C(F)(F)F)cc1)c1ccccc1 (stereo not given)
    -16.9%	>57
Cc1ccc(-c2ccc(CCC(=O)O)n2Cc2ccco2)cc1
    -16.1%	>57
CC1CCN(C(=O)Cn2c(=O)oc3ccccc32)CC1
    2.1%	>57
COc1ccc(CCC(=O)Nc2ccc(Br)cn2)cc1
    .	>57
CO[C@H]1COC(=O)C/C=C\[C@H](C)[C@H](OC)COC(=O)[C@@H](C)NC(=O)C/C=C\[C@@H]1C
    6.1%[8 µM]	.
COc1ccc(N2CCN(CCNC(=O)c3nnc(Cc4c(F)cccc4Cl)o3)CC2)cc1
    -6.6%	>57
Cc1ccc(-n2c(N)c(C(=O)N3CCN(C)CC3)sc2=S)cc1
    -6.9%	>57
CC(=O)c1ccc(NC(=O)c2ccc(S(=O)(=O)N3CCCC3)cc2)cc1
    -4.1%	>57
CCOC(=O)C1=C(C)NC(=O)NC1c1ccc(F)cc1 (stereo not given)
    5.8%	>57
Cc1c[n+]([O-])n(-c2ccc(C(=O)O)cc2)n1
    0.5%	>57
CCC(C)(C)n1nnnc1C(c1cc2cc(C)ccc2[nH]c1=O)N1CCCC1 (stereo not given)
    -21.5%	>57
COc1cccc(CSc2nnc(-c3ccco3)n2C)c1
    -11.4%	>57
Cc1cc(N2CCN(C)CC2)n2nc(-c3ccc(Cl)cc3)nc2n1
    -1.6%[8 µM]	>57
Cc1ccc(S(=O)(=O)CCSc2nc(C)cc(C)c2C#N)cc1
    ?	>57
CC1CCCCC1NC(=O)Cn1cnc2ccccc2c1=O (stereo not given)
    -0.4%	>57
CCOC(=O)N1CCN(c2c(-c3ccccc3)c3cc(Cl)ccc3[nH]c2=O)CC1
    28.9%	>57
COc1ccc2ccccc2c1/C=C\C(=O)c1ccccc1
    ?	>57
CN1CCC2=C[C@H](O)[C@@H]3OC(=O)c4cc5c(cc4[C@H]3[C@H]21)OCO5
    -8.1%[3.58 µM]	>57
OC12CCCCC1C(c1ccccc1)NCC2 (stereo not given)
    -2.4%	>57
CCCC(=O)Nc1nnc(CC(=O)OCC)s1
    4.7%	>57
N#Cc1nc(-c2ccc(OCc3ccc(Cl)cc3)cc2)oc1NCc1cccnc1
    ?	>57
CSCCC1NC(=O)NC1=O (stereo not given)
    3.0%	>57
Cc1ccc(-c2noc(-c3ccccc3Br)n2)cc1
    ?	.
CC1(O)C(=O)C=C2C=C3CCCN3C=C2C1=O (stereo not given)
    -12.4%[8 µM]	.
COC(=O)c1nc(NC(=O)C(C)(C)C)n[nH]1
    19.9%	>57
O=C(C1CCCCC1)N1CCN(c2ncccn2)CC1
    1.1%	.
O=C(COc1ccc(Cl)cc1)NCc1nnc(SCC(=O)Nc2ccccc2)o1
    -3.3%	>57
CC(=O)O[C@H]1C2=C(C(=O)[C@H]3O[C@@H]31)[C@@H]1[C@@H]3[C@@H](C)OC=C4[C@H](O)[C@H]5O[C@@H]5C(=O)[C@]43C2O[C@H]1C
    6.9%[8 µM]	.
CCOC(=O)c1[nH]c(C)c(C(=O)Nc2ccc3c(c2)CCC3)c1C
    -14.3%	>57

Bioassay records: PubChem BioAssay, National Center for Advancing Translational Sciences (NCATS)
